A1_apoptosis_2: blocks A1, raising caspase activity | MEF A1-2A-BIM cells, caspase-Glo luminescence, 3 h; percent of clofoctol response, DMSO zero | caspase activation, % (test concentration not listed) | 24,000 tested, under 10 active; in the data active means caspase activation above about 5.9%;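 further: wells of about 30 µL received 50 nL stock; the first replicate is given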
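system = A1-2A-BIM-expressing MEF cells | quantity = 2500 MEF cells/well | dosing = 50 nL compound per well, pinned | schedule = overnight cell settling, then 3 h compound exposure, 37 °C | signal = luminescence from DEVD-luciferin Caspase-Glo reagent, 1:1 in 50 mM HEPES, 1 h RT | read-out = Caspase-3/7 activation, seen as rise in luminescence signal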
Active calls of the source: *. A portion of the library, so the mix of outcomes need not match the whole.

SMILES A1_apoptosis_2
C[C@H](CO)N1C[C@H](C)[C@H](CN(C)C)Oc2ccc(NC(=O)Nc3ccc(C(F)(F)F)cc3)cc2C1=O 0.6
COc1cc(/C=N/NC(=O)c2ccccn2)c(Br)cc1O -8.9
Cc1noc(C)c1NC(=O)Nc1cccc2c1O[C@@H](CN(C)C(=O)Nc1ccc3c(c1)OCO3)[C@H](C)CN([C@@H](C)CO)C2=O 0.0
COc1ccc(CN(C)C[C@@H]2OCCCC[C@@H](C)Oc3ccc(NS(=O)(=O)c4c(C)noc4C)cc3C(=O)N([C@H](C)CO)C[C@H]2C)cc1 1.2
C[C@H]1CCCCO[C@@H](CN(C)Cc2ccc(C(F)(F)F)cc2)[C@@H](C)CN([C@@H](C)CO)C(=O)c2cc(NS(=O)(=O)c3ccc(F)cc3)ccc2O1 1.1
CNC[C@@H]1OCCCC[C@@H](C)Oc2ccc(NS(=O)(=O)c3ccc(C)cc3)cc2C(=O)N([C@@H](C)CO)C[C@@H]1C 0.1
COc1ccc(NC(=O)N(C)C[C@H]2Oc3ccc(NC(=O)Cc4ccccc4)cc3C(=O)N([C@@H](C)CO)C[C@@H]2C)cc1 -0.6
CNC[C@H]1Oc2c(cccc2N(C)C)C(=O)N([C@H](C)CO)C[C@H]1C 0.2
C[C@H]1CCCCO[C@H](CN(C)Cc2ccccc2)[C@@H](C)CN([C@@H](C)CO)C(=O)c2cc(N(C)C)ccc2O1 0.1
C[C@H]1CN([C@@H](C)CO)C(=O)c2cccc(NC(=O)Nc3ccc4c(c3)OCO4)c2O[C@@H]1CN(C)S(=O)(=O)c1ccc(Cl)cc1 -0.6
C[C@@H]1CCCCO[C@H](CN(C)C)[C@H](C)CN([C@H](C)CO)C(=O)c2cc(NC(=O)Nc3ccccc3)ccc2O1 -1.0
COc1ccc(CN(C)C[C@@H]2Oc3ccc(NC(=O)Nc4ccc5c(c4)OCO5)cc3CC(=O)N([C@@H](C)CO)C[C@@H]2C)cc1 1.3
C[C@@H]1C=C(C(=O)N2CCOCC2)O[C@H](OCc2ccc(CO)cc2)C1 0.0
C[C@H](CO)N1C[C@H](C)[C@@H](CN(C)CC2CCCCC2)Oc2ccc(NC(=O)c3ccncc3)cc2C1=O -1.2
C[C@@H]1CN([C@H](C)CO)C(=O)c2cc(N(C)C)ccc2O[C@H]1CN(C)CC1CCCCC1 0.4
C[C@@H]1CN([C@H](C)CO)C(=O)c2cc(NC(=O)Nc3cccc4ccccc34)ccc2O[C@H]1CN(C)C -0.2
C[C@H](CO)N1C[C@H](C)[C@H](CN(C)Cc2ccc(Cl)c(Cl)c2)Oc2c(NC(=O)Nc3ccc(C(F)(F)F)cc3)cccc2C1=O -0.1
C=CC[C@]1(C(=O)N(C)C)N=C(c2ccc(OCCCO)cc2)O[C@H]1c1ccccc1 0.5
C[C@@H]1CN([C@H](C)CO)C(=O)c2cc(NS(C)(=O)=O)ccc2O[C@@H]1CN(C)C(=O)Nc1ccccc1 -0.2
COc1ccc(S(=O)(=O)N(C)C[C@@H]2Oc3ccc(NC(=O)Cc4ccccc4)cc3CC(=O)N([C@@H](C)CO)C[C@H]2C)cc1 -0.2
C[C@@H]1CN([C@H](C)CO)C(=O)c2cc(NC(=O)NC3CCCCC3)ccc2O[C@@H]1CN(C)C(=O)Nc1cccc2ccccc12 0.3
C[C@@H]1CN([C@H](C)CO)C(=O)c2cc(NC(=O)Cn3cnnn3)ccc2O[C@H]1CN(C)S(=O)(=O)c1ccccc1 0.0
Cc1noc(C)c1NC(=O)N(C)C[C@H]1Oc2ccc(NC(=O)Nc3cccc4ccccc34)cc2CC(=O)N([C@@H](C)CO)C[C@H]1C 1.6
COC(=O)N(C)C[C@@H]1OCc2cn(nn2)CCCC(=O)N([C@@H](C)CO)C[C@@H]1C -0.1
C[C@@H]1CCCCO[C@@H](CN(C)CC2CCCCC2)[C@H](C)CN([C@@H](C)CO)C(=O)c2cc(N(C)C)ccc2O1 -1.1
C[C@H](CO)N1C[C@H](C)[C@@H](CN(C)Cc2ccc(C(F)(F)F)cc2)OCCCC[C@H](C)Oc2ccc(NC(=O)Nc3cccc4ccccc34)cc2C1=O 2.4
C[C@@H]1CN([C@@H](C)CO)C(=O)c2cc(NC(=O)Nc3ccccc3)ccc2O[C@@H](C)CCCCO[C@H]1CN(C)C(=O)C1CCCCC1 -0.4
C[C@@H]1CN([C@@H](C)CO)C(=O)c2cccc(NC(=O)C3CC3)c2O[C@@H]1CN(C)S(=O)(=O)c1ccc(Cl)cc1 -1.5
C[C@H](CO)N1C[C@H](C)[C@@H](CN(C)Cc2ccncc2)Oc2ccc(NC(=O)Cc3ccccc3)cc2CC1=O -1.0
C[C@@H]1CN([C@H](C)CO)C(=O)c2cc(NC(=O)CCC(F)(F)F)ccc2O[C@@H](C)CCCCO[C@H]1CN(C)Cc1ccc(C(=O)O)cc1 1.0

Quoted from above, 9 compounds:
SMILES A1_apoptosis_2
C[C@@H]1CN([C@H](C)CO)C(=O)c2cc(NC(=O)Nc3cccc4ccccc34)ccc2O[C@H]1CN(C)C -0.2
C[C@H](CO)N1C[C@H](C)[C@H](CN(C)Cc2ccc(Cl)c(Cl)c2)Oc2c(NC(=O)Nc3ccc(C(F)(F)F)cc3)cccc2C1=O -0.1
C=CC[C@]1(C(=O)N(C)C)N=C(c2ccc(OCCCO)cc2)O[C@H]1c1ccccc1 0.5
C[C@@H]1CN([C@H](C)CO)C(=O)c2cc(NS(C)(=O)=O)ccc2O[C@@H]1CN(C)C(=O)Nc1ccccc1 -0.2
COc1ccc(S(=O)(=O)N(C)C[C@@H]2Oc3ccc(NC(=O)Cc4ccccc4)cc3CC(=O)N([C@@H](C)CO)C[C@H]2C)cc1 -0.2
C[C@@H]1CN([C@H](C)CO)C(=O)c2cc(NC(=O)NC3CCCCC3)ccc2O[C@@H]1CN(C)C(=O)Nc1cccc2ccccc12 0.3
C[C@@H]1CN([C@H](C)CO)C(=O)c2cc(NC(=O)Cn3cnnn3)ccc2O[C@H]1CN(C)S(=O)(=O)c1ccccc1 0.0
Cc1noc(C)c1NC(=O)N(C)C[C@H]1Oc2ccc(NC(=O)Nc3cccc4ccccc34)cc2CC(=O)N([C@@H](C)CO)C[C@H]1C 1.6
COC(=O)N(C)C[C@@H]1OCc2cn(nn2)CCCC(=O)N([C@@H](C)CO)C[C@@H]1C -0.1

Continued:
SMILES A1_apoptosis_2
CC(C)NC(=O)Nc1ccc2c(c1)C(=O)N([C@H](C)CO)C[C@@H](C)[C@H](CN(C)C(=O)Nc1ccc(C(F)(F)F)cc1)O2 0.5
C[C@@H]1CN([C@@H](C)CO)C(=O)c2cccc(NS(C)(=O)=O)c2O[C@H]1CN(C)Cc1ccc(C(=O)Nc2ccccc2N)cc1 -0.5
C[C@@H]1CN([C@@H](C)CO)C(=O)c2cc(NS(=O)(=O)c3ccccc3)ccc2O[C@H]1CN(C)S(C)(=O)=O 0.6
Cc1noc(C)c1S(=O)(=O)N(C)C[C@@H]1OCCCC[C@@H](C)Oc2ccc(NS(C)(=O)=O)cc2C(=O)N([C@H](C)CO)C[C@@H]1C 0.7
C[C@@H]1CN([C@H](C)CO)C(=O)CCCn2cc(nn2)CO[C@@H]1CN(C)C(=O)Nc1cccc(C(F)(F)F)c1 0.4
CCCN(C)C[C@@H]1OCCCC[C@@H](C)Oc2ccc(NC(=O)c3ccccc3)cc2C(=O)N([C@H](C)CO)C[C@@H]1C 0.1
CC(C)NC(=O)N(C)C[C@@H]1Oc2ccc(NS(=O)(=O)c3ccc(Cl)cc3)cc2CC(=O)N([C@@H](C)CO)C[C@H]1C -0.4
C[C@H]1CN([C@@H](C)CO)C(=O)c2cccc(NC(=O)Nc3ccc(F)cc3)c2O[C@H]1CN(C)Cc1ccccc1 0.2
CCOc1cccc(/C=N/NC(=O)c2ccc(C(=O)NO)cc2)c1OCC 0.4
C[C@@H]1CN([C@H](C)CO)C(=O)c2cc(NC(=O)Cn3cnnn3)ccc2O[C@H]1CN(C)Cc1ccc(Cl)c(Cl)c1 -0.7
O=C(N/N=C\c1ccc2ccccc2n1)c1ccccn1 -6.5
Cc1noc(C)c1S(=O)(=O)Nc1ccc2c(c1)CC(=O)N([C@H](C)CO)C[C@H](C)[C@@H](CN(C)C(=O)Nc1cccc3ccccc13)O2 0.2
C[C@@H]1CN([C@H](C)CO)C(=O)c2cc(NC(=O)Nc3cccc4ccccc34)ccc2O[C@@H]1CN(C)Cc1ccc2c(c1)OCO2 1.2
C[C@@H]1CCCCO[C@@H](CN(C)Cc2ccccc2)[C@H](C)CN([C@@H](C)CO)C(=O)c2cc(NC(=O)Nc3ccccc3)ccc2O1 0.1
C[C@H]1CCCCO[C@H](CN(C)C(=O)c2ccccc2)[C@@H](C)CN([C@@H](C)CO)C(=O)c2cc(NC(=O)CCC(F)(F)F)ccc2O1 0.0
C[C@@H]1CN([C@H](C)CO)C(=O)c2cc(N(C)C)ccc2O[C@@H](C)CCCCO[C@H]1CN(C)C(=O)C1CCCCC1 1.5
C[C@H]1CN([C@@H](C)CO)C(=O)c2cc(NS(=O)(=O)c3cccs3)ccc2O[C@H]1CN(C)C(=O)Nc1ccc2c(c1)OCO2 0.2
Cc1noc(C)c1S(=O)(=O)N(C)C[C@@H]1Oc2c(NC(=O)C3CC3)cccc2C(=O)N([C@@H](C)CO)C[C@@H]1C -0.6
C[C@@H]1CCCCO[C@@H](CN(C)C(=O)CCC(F)(F)F)[C@@H](C)CN([C@H](C)CO)C(=O)c2cc(NS(=O)(=O)c3cccs3)ccc2O1 -0.2
C[C@H]1CN([C@@H](C)CO)C(=O)Cc2cc(NS(=O)(=O)c3cccs3)ccc2O[C@H]1CN(C)Cc1ccc(C(=O)Nc2ccccc2N)cc1 0.5
C[C@H](CO)N1C[C@H](C)[C@H](CN(C)C(=O)Nc2ccc(F)cc2)Oc2ccc(NC(=O)Nc3cccc4ccccc34)cc2CC1=O -0.5
C[C@@H]1CN([C@@H](C)CO)C(=O)c2cccc(NC(=O)C3CCCCC3)c2O[C@@H]1CN(C)S(=O)(=O)c1ccc(F)cc1 0.0
C[C@@H]1CN([C@@H](C)CO)C(=O)c2cc(NC(=O)Nc3ccc4c(c3)OCO4)ccc2O[C@@H](C)CCCCO[C@@H]1CN(C)CC1CCCCC1 -0.1
C[C@@H]1CN([C@@H](C)CO)C(=O)c2cc(NC(=O)Cc3cn(C)c4ccccc34)ccc2O[C@H]1CN(C)C(=O)Nc1ccc(F)cc1 -0.4
C[C@@H]1CCCCO[C@@H](CN(C)S(=O)(=O)c2ccccc2)[C@H](C)CN([C@@H](C)CO)C(=O)c2cc(NC(=O)CCCN(C)C)ccc2O1 0.5
Cc1ccc(S(=O)(=O)N(C)C[C@H]2OCCCC[C@H](C)Oc3ccc(NS(=O)(=O)c4c(C)noc4C)cc3C(=O)N([C@H](C)CO)C[C@H]2C)cc1 -0.7
C[C@@H]1CCCCO[C@H](CN(C)C(=O)c2ccncc2)[C@@H](C)CN([C@@H](C)CO)C(=O)c2cc(N(C)C)ccc2O1 -0.6
CNC[C@H]1Oc2c(NS(=O)(=O)c3cccs3)cccc2C(=O)N([C@@H](C)CO)C[C@H]1C 1.3
C[C@H]1CCCCO[C@@H](CN(C)Cc2ccncc2)[C@@H](C)CN([C@@H](C)CO)C(=O)c2cc(NC(=O)Cc3ccccc3)ccc2O1 -0.5
Cc1ccc(S(=O)(=O)N(C)C[C@@H]2Oc3ccc(NC(=O)Nc4ccc(C(F)(F)F)cc4)cc3CC(=O)N([C@H](C)CO)C[C@@H]2C)cc1 -1.3
C[C@H]1CN([C@@H](C)CO)C(=O)c2cc(NC(=O)Cc3ccccc3)ccc2O[C@@H]1CN(C)S(=O)(=O)c1ccccc1 0.0
C[C@H](CO)N1C[C@H](C)[C@@H](CN(C)Cc2ccccc2)OCCCC[C@H](C)Oc2ccc(NC(=O)c3ccccc3)cc2C1=O 0.6
C[C@@H]1CCCCO[C@@H](CN(C)C(=O)Nc2ccccc2)[C@@H](C)CN([C@H](C)CO)C(=O)c2cc(NC(=O)Nc3ccc(F)cc3)ccc2O1 0.6
C[C@@H]1CN([C@@H](C)CO)C(=O)c2cc(NC(=O)c3ccncc3)ccc2O[C@H]1CN(C)C(=O)NC1CCCCC1 1.2
C[C@H](CO)N1C[C@H](C)[C@@H](CN(C)C(=O)Nc2cccc3ccccc23)OCCCC[C@H](C)Oc2ccc(NC(=O)CCCN(C)C)cc2C1=O -0.4
COc1ccc(CN(C)C[C@@H]2Oc3ccc(NC(=O)C4CC4)cc3CC(=O)N([C@@H](C)CO)C[C@H]2C)cc1 0.3
C[C@@H]1CN([C@H](C)CO)C(=O)c2cccc(NC(=O)c3nc4ccccc4s3)c2O[C@@H]1CN(C)C(=O)Nc1cccc2ccccc12 -0.4
Cc1noc(C)c1NC(=O)N(C)C[C@@H]1Oc2ccc(NC(=O)NC3CCCCC3)cc2C(=O)N([C@@H](C)CO)C[C@@H]1C 0.0
C[C@H](CO)N1C[C@H](C)[C@H](CN(C)Cc2ccncc2)Oc2c(NC(=O)Nc3ccc(C(F)(F)F)cc3)cccc2C1=O 0.0
C[C@@H]1CN([C@@H](C)CO)C(=O)c2cc(NS(=O)(=O)c3ccccc3)ccc2O[C@H]1CN(C)C(=O)Nc1ccccc1 0.1
C[C@H]1CN([C@@H](C)CO)C(=O)c2cccc(NS(=O)(=O)c3ccc(Cl)cc3)c2O[C@@H]1CN(C)C(=O)Nc1ccc(C(F)(F)F)cc1 -0.3
C[C@@H]1CN([C@@H](C)CO)C(=O)c2cccc(NC(=O)C3CC3)c2O[C@H]1CN(C)C -1.8
O=C(N/N=C/c1cc(O)ccc1[N+](=O)[O-])c1ccccc1O -4.3
C[C@@H]1CN([C@H](C)CO)C(=O)c2cccc(NS(=O)(=O)c3cccs3)c2O[C@@H]1CN(C)CC1CC1 0.0

Screens deposited in PubChem by Broad Institute.
